Screening results from PubChem.
PrP 5UTR inh = suppresses PrP 5' UTR mRNA reporter expression; inhibition, % (test concentration not listed); AID 488862; cell-based PrP 5' UTR mRNA reporter, plate reader; 340,000 compounds, 0.35% hits;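 active means every replicate at 50% or more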;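 further: 0 = median of the neutral control wells; tested in H4 reporter cells; numbers are from one replicate; inactives centre near -14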
BJeLR viability = BJeLR cell viability loss. 300,000 compounds, 0.17% hits. inhibition, % (concentration not given with the values). BJeLR (HRASV12) viability, CellTiter-Glo ATP luminescence, 48 h; reference of the scale not given here;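 active means replicate mean above 50%; inconclusive means above 50% but judged a plate artefact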;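 further: 50 nL library stock added to about 25 µL; numbers are from one replicate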
ugtP null kill = compounds lethal to S. aureus RN4220 ugtP deletion mutant; 330,000 compounds, 0.54% hits; OD600 growth, 16 h; some inactives read as strong as hits; growth inhibition, % (test concentration not listed);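 active means z-score under -3 and OD600 up to 0.15 on both plates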;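 further: plate controls were untreated wells for no effect and antibiotic for full effect; wells of about 80 µL received 100 nL stock; the first replicate is given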
Autofluor counter = flagged as autofluorescent in microsphere protease counterscreen; compound autofluorescence counterscreen, microsphere flow cytometry; active compounds read high; fluorescence intensity (test concentration not listed); 360,000 compounds, 3.1% hits; AID 624483;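 active means at least 3 SD above the mean of all compounds, about 16000 in these data; inconclusive means too few beads counted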;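 further: 100 nL of 1 mM stock went into each well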
Mtb hypoxia rep = Mtb hypoxia fluorescent reporter inhibition; M. tuberculosis hypoxia-regulated fluorescent reporter, fluorescence; fluorescence inhibition, % (test concentration not listed); 300,000 compounds, 0.1% hits;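 active means 35 to 45% if threefold the growth effect, above 45% if 1.5-fold the growth effect; inactive means the rest, general growth blockers included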;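 further: wells of about 50 µL received 100 nL stock; 0% = vehicle wells and 100% = reference inhibitor wells; whole bacteria with a GFP reporter of the hypoxia response; strong numbers were not always called active; many hits fall short of the cut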
RN4220 kill = kills Staphylococcus aureus RN4220. AID 1259311. S. aureus RN4220 growth, OD600, 16 h. inhibition, % (concentration not given with the values). 330,000 compounds, 0.33% hits;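 active means z-score of -3 or lower and OD600 up to 0.18 on both plates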;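 further: plate controls were untreated cells for no effect and reference antibiotic for full effect; stock transfer was 100 nL into about 80 µL; one replicate is shown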
Mtb hypoxia rep growth = also measured in Mtb hypoxia rep; calls as there; growth inhibition, %; measured here: M. tuberculosis growth (absorbance);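 0% = vehicle and 100% = reference antibiotic; read after six days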
* = called active by the depositor; ? = inconclusive; · = not tested or not shown.

canonical_smiles,PrP 5UTR inh,BJeLR viability,ugtP null kill,Autofluor counter,Mtb hypoxia rep,Mtb hypoxia rep growth,RN4220 kill
CC(C)(C)n1nc2c(c1NC(=O)c1ccco1)CS(=O)C2 (configuration not stated),-31,-3,4,3143,-5,-5,2.8
COc1cccc(NS(=O)(=O)CC23CCC(CC2=O)C3(C)C)c1 (configuration not stated),-8,4,7,3682,1,-2,12
COc1ccc(C(=O)CSc2nnc(-c3ccccc3)o2)cc1,-11,-2,-17,3144,7,8,2.7
CC(C)(c1ccccc1)c1ccc(OCc2ccc(C(=O)O)o2)cc1,-152,·,5,6849,5,0,45
COc1ccccc1-c1nc(SCC(=O)NCc2ccco2)c2c(=O)n(C)c(=O)n(C)c2n1,-6,4,-3,4878,13,10,1.0
COc1ccc(C)cc1NC(=O)CN1CCN(S(=O)(=O)c2ccc(C(C)C)cc2)CC1,14,-6,-14,4682,·,·,-1.7
O=C(O)c1cccc(N/N=C/c2cn(-c3ccccc3)nc2-c2cccs2)c1,-76,4,·,3904,·,·,·
COc1cccc(C2c3[nH]c4ccccc4c3CCN2Cc2cnn(C)c2)c1 (configuration not stated),-2,-9,10,4656,0,8,3.9
Cc1cccc(Cn2c(N3CCN(CCO)CC3)nc3c2c(=O)[nH]c(=O)n3C)c1,-9,-7,2,·,4,0,3.5
Nn1c(SCC(=O)NC(=O)NC2CCCC2)nnc1-c1ccccc1F,-18,-1,8,10735,6,1,9.7
O=C(CN1CCN(Cc2ccccc2)CC1)N/N=C/C=C/c1ccccc1[N+](=O)[O-],-14,-1,·,2502,·,·,·
COc1ccccc1/C=C/C=NN1CCN(Cc2ccccc2)CC1,·,·,10,·,4,-5,-1.2
O=C(O)c1ccc(CNCc2cccc(Cl)c2Cl)cc1,3,-11,0,2712,·,·,-2.3
COc1ccc(S(=O)(=O)N2CCOCC2)cc1NC(=O)c1ccncc1,-14,·,4,8234,15,14,6.3
O=c1cc(O)c2c(=O)n(-c3ccccc3)c3c(c2o1)CCCCC3,-7,4,2,10039,2,5,9.4
CCCN(CCC)CC(O)Cn1cc(/C=C/C(=O)c2cccs2)c2ccccc21 (configuration not stated),-1,-2,36,3299,·,·,15
CCOc1ccc(-n2c(SCC(=O)NC3CCS(=O)(=O)C3)nnc2-c2cccnc2)cc1 (configuration not stated),13,-2,2,4632,10,-3,6.1
Cc1cc(Nc2c(C)n(C)n(-c3ccccc3)c2=O)n2c(nc3ccccc32)c1C#N,-22,1,-9,9784,-5,7,1.1
O=C(COC(=O)c1ccc(O)cc1)NC(=O)NCc1ccccc1,-47,·,-3,3963,-4,-2,2.8
O=C(CSc1ncccn1)N/N=C/c1ccc2c(c1)OCO2,-37,8,·,6188,·,·,·
O=C(NCCC(=O)N1CCC2(CC1)NCCc1[nH]cnc12)c1cccc(C(F)(F)F)c1,-26,-6,6,5085,11,3,5.4
OCC[C@@H]1C[C@H](O)[C@@H](O)[C@@]2(CCCc3ccccc3O2)O1,-5,3,·,4113,·,·,·
NS(=O)(=O)c1ccc(NC(=S)NC(=O)c2ccco2)cc1,-20,6,18,1929,15,11,5.1
CC(Oc1ccccc1)C(=O)NC1=NCCS1 (configuration not stated),-75,1,12,3283,0,2,3.8
CC(C)(C)OC(=O)N1CCC(c2c(C(=O)N3CCN(C(=O)c4ccco4)CC3)cnn2-c2ccc(F)cc2F)CC1,6,-1,4,5622,7,2,-0.1
Cc1nnsc1C(=O)N1CCC(C(=O)c2ccccc2)CC1,-25,0,12,7070,22,10,4.8
CC(C)c1ccc(C(=O)OCC(=O)NC2CCCC2)cc1,-2,-3,0,3369,8,1,2.3
COc1ccc(NC(=O)CN(C)S(=O)(=O)c2cnc[nH]2)cc1,-12,-4,7,4371,-2,-6,1.8
CC(C)=NOC(=O)c1ccc(-c2ccccc2)cc1,-11,17,-1,2321,-5,-2,4.6
Nc1ncnc(N2CCOCC2)c1N,-15,-7,-4,2222,-3,5,-4.2
Cc1cc(C)n(-c2nc3ccccc3c(=O)n2OC2CCCCC2)n1,-4,-6,5,3753,·,·,3.3
O=[N+]([O-])c1ccc(N2CCN(S(=O)(=O)c3ccccc3)CC2)cc1NCC1CCCO1 (configuration not stated),-6,11,1,2054,-3,3,0.0
Cc1c(-c2nnnn2-c2ccc(F)cc2)cnc2cc3c(cc12)OCO3,-29,-1,4,4210,5,9,2.2
O=C(CSc1n[nH]c(=O)n1-c1cccnc1)Nc1ccccc1,-10,-7,12,3926,5,-3,6.0
COc1cc(CCCN2C(=O)C(=O)NC[C@@H]2c2ccccc2)cc(OC)c1OC,-8,-5,·,3426,·,·,·
CC(=NNC(=O)c1ccncc1)c1ccc(Cl)c(Cl)c1,-27,·,1,3649,19,9,-6.8
O=C(NNC1=NS(=O)(=O)c2ccccc21)c1cccc([N+](=O)[O-])c1,-10,4,2,3916,10,3,4.0
O=C(CN1C(=O)COc2ccccc21)NNC(=O)Nc1ccccc1F,-34,11,-3,3718,-8,2,1.6
Clc1ccc(Cc2ccccc2)nn1,-29,-6,1,21162*,24,25,2.5
N#CC1(NC(=O)COc2ccccc2[N+](=O)[O-])CCCCC1,-21,-2,3,?,8,7,4.1
Cc1ccc(C(=O)NCc2ccc(Cl)cc2)cc1S(=O)(=O)N1CCCCC1,-4,·,3,2930,9,0,1.4
CCCCNC(=O)c1ccccc1NC(=O)CCC,-9,-22,-2,2466,1,-1,1.8
CCCSc1ccc(C2N[C@@](CC(C)C)(C(=O)OC)C3C(=O)N(CC)C(=O)C23)cc1 (some centres not stated),·,·,2,·,17,8,4.5
CCOc1ccc(N(C(=O)CNC(=O)c2ccco2)C(C(=O)NC2CCCC2)c2cccnc2)cc1 (configuration not stated),0,-1,-4,3105,2,-5,-0.7
CCOc1ccc2nc3sc(C(=O)N4CCN(C)CC4)c(N)c3cc2c1,-16,-3,-7,5089,3,6,-0.5
CCN(C(=O)Cn1c(=O)oc2ccccc21)c1cccc(C(F)(F)F)c1,-13,2,0,3017,3,-5,2.0
COC(=O)C1CN(S(=O)(=O)c2ccc(NC(C)=O)cc2)CCS1 (configuration not stated),-1,-1,0,6268,-4,-1,4.0
Cc1ccc(C(=O)NC2CCCN(c3ccc(C(F)(F)F)cn3)C2)cn1 (configuration not stated),-35,-3,-7,5935,-2,7,-2.8
COc1cc(CNC(=O)C2CCCC2)cc(OC)c1OC,-4,11,1,3399,15,6,-0.2
CCOc1ccc(NC(=O)CCC(=O)c2ccc(Br)cc2)cc1,-2,-9,3,3229,9,8,3.2
O=C(CC1OCC2CCCN2C1=O)Nc1ccc([N+](=O)[O-])cc1 (configuration not stated),-19,4,2,3534,10,2,7.9
COc1ccc2c(C=O)cn(C)c2c1,-27,-6,1,4116,7,3,3.9
COc1ccc(N2CC(C(=O)NC3=NCCS3)CC2=O)cc1 (configuration not stated),-32,-2,9,3530,9,16,-1.8
Nc1nc(Nc2ccccc2)nc2ccccc12,-43,14,-3,7130,-19,-1,-1.1
CCOC(=O)/C(C#N)=C/c1ccc(OC)c(OC)c1,-14,10,3,4588,10,6,-0.2
Cc1n[nH]c(C)c1SCC(=O)Nc1ccc(F)cc1,-17,-2,-1,2386,14,8,-15
O=C(NC1CCCCC1)C1c2ccccc2C(=O)N1Cc1ccc2c(c1)OCO2 (configuration not stated),-47,1,2,3926,-2,6,3.6
Cc1cc(C(=O)N[C@H](c2ccccc2)[C@@]2(C)C[C@@H]2[C@@H](C)C(=O)Nc2ccc3ccccc3c2)no1,-5,-6,·,3975,·,·,·
CCOc1ccc(CCNC(=O)COC(=O)/C=C/c2cccc(OC)c2)cc1OCC,-18,2,6,4630,-2,-1,4.8
COc1cc(CN2CCc3ccccc3C2)ccc1O,-56,18,·,4648,·,·,·

Additional structures follow.
canonical_smiles,PrP 5UTR inh,BJeLR viability,ugtP null kill,Autofluor counter,Mtb hypoxia rep,Mtb hypoxia rep growth,RN4220 kill
C=C1CCN([C@@H](CC(C)C)C(=O)NCc2ccco2)S(=O)(=O)c2ccccc21,-27,2,·,4107,·,·,·
COC(=O)C1=C(c2ccc(F)cc2OCc2ccccc2)CC2CCC1N2C(=O)NCc1ccccc1Cl (configuration not stated),·,·,-1,·,5,-4,-11
Cc1ccc(-c2nc(C3CCCN(S(=O)(=O)c4ccc(C(C)(C)C)cc4)C3)no2)cc1 (configuration not stated),-23,10,11,5319,6,8,1.8
C(=N\c1nccs1)/Nc1nccs1,-18,1,·,2863,·,·,·
Cc1ccc(/C=N\NC(=O)Cc2cccn2C)o1,-59,6,·,3908,·,·,·
O=C(O)CN1C(=O)/C(=C\c2cn(CC(=O)N3CCOCC3)c3ccccc23)SC1=S,8,-4,6,2673,-20,1,3.1
COc1cccc(OC)c1C(=O)Nc1ccc2c3c(cccc13)CC2,-73,-5,6,?,6,4,7.9
Cc1nc2nc(C)n(-c3ccccc3)c2s1,-15,·,5,3495,·,·,2.1
CC1CCC(CC(=O)O)(C(=O)O)CC1 (configuration not stated),-27,·,6,3924,17,9,5.2
CN(C)CCN1C(=O)C2C(C(=O)Nc3cc(Cl)cc(Cl)c3)C3C=CC2(O3)C1C(=O)NC1CCCCC1 (configuration not stated),-11,1,0,4268,12,2,-2.3
Cc1ccc2nc(SCC(=O)NCc3ccc(S(N)(=O)=O)cc3)[nH]c2c1,-10,2,4,3991,15,2,3.1
Cc1ccsc1C(=O)C1CCCN(Cc2ccccc2O)C1 (configuration not stated),45,3,-3,3573,-7,2,3.8
COc1ccc(C)cc1NC(=O)c1ccc(OC(F)F)cc1,-21,-7,19,2180,14,6,5.6
COc1cc(C)nc(NCc2ccccc2)n1,-18,9,7,3634,-2,0,3.1
Cc1c(NC(=O)c2cccc(NC(=O)COc3ccc(C#N)cc3)c2)c(=O)n(-c2ccccc2)n1C,-14,·,3,?,-8,-1,0.8

Five compounds already listed, ordered by SMILES length, falling:
canonical_smiles,PrP 5UTR inh,BJeLR viability,ugtP null kill,Autofluor counter,Mtb hypoxia rep,Mtb hypoxia rep growth,RN4220 kill
Cc1c(NC(=O)c2cccc(NC(=O)COc3ccc(C#N)cc3)c2)c(=O)n(-c2ccccc2)n1C,-14,·,3,?,-8,-1,0.8
Cc1ccc(-c2nc(C3CCCN(S(=O)(=O)c4ccc(C(C)(C)C)cc4)C3)no2)cc1 (configuration not stated),-23,10,11,5319,6,8,1.8
O=C(O)CN1C(=O)/C(=C\c2cn(CC(=O)N3CCOCC3)c3ccccc23)SC1=S,8,-4,6,2673,-20,1,3.1
Cc1ccc2nc(SCC(=O)NCc3ccc(S(N)(=O)=O)cc3)[nH]c2c1,-10,2,4,3991,15,2,3.1
COc1cc(C)nc(NCc2ccccc2)n1,-18,9,7,3634,-2,0,3.1
